Source: PubChem (National Center for Advancing Translational Sciences (NCATS))
TRPML1 agonist = human mucolipin-1 channel agonism. Q9GZU1. TRPML1-expressing cells, Ca2+ dye fluorescence, FDSS; host cell line not named in the record; reference of the full effect not given here. activation, % (concentration not given with the values). 0.12% of 410,000 active. AID 624414; in the data active = activation above about 50%; inconclusive = about 30% to 50%; inactive = below about 30%; note: 0% is about no effect; the text of the record puts the active cut at 80%
Target sequence (Q9GZU1 whole entry, looked up): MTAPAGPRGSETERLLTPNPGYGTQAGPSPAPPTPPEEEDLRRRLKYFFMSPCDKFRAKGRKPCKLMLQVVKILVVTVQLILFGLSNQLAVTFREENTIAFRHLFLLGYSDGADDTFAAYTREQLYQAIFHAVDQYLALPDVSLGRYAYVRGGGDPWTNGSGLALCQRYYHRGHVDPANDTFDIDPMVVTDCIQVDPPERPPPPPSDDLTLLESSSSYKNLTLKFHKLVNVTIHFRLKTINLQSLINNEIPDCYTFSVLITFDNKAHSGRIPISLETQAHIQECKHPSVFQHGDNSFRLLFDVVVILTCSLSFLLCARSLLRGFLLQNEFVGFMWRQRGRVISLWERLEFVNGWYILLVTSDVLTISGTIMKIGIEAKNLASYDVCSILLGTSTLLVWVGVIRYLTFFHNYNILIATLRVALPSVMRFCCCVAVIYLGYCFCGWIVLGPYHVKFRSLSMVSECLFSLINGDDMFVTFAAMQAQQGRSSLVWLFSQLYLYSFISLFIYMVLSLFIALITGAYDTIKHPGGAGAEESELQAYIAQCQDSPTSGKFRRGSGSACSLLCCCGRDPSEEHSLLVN
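Calcium fluorescence on an FDSS kinetic reader gave the read-out. Tet-induced TRPML1-DL cells were plated overnight, dye-loaded (Ca8 with quencher, 45-90 min, room temperature, dark), then read 110 s after compound addition, and again 110 s after 4uM final 54-4 (EC80).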
ClpP mod = qHTS Assay for Activators of ClpP. 1.9% of 340,000 active. purified B. subtilis ClpP, FRET peptide cleavage, 20 min. Potency, µM (doses to about 57.5 µM), inactives show at the top dose activity change, negative = active. AID 651965, 2013; active = well fitted falling curve with a large enough effect; inconclusive = small, poorly fitted or top-dose-only effect; inactive = no such curve, though single readings can be large or run the other way; note: potency is the fitted concentration of half-maximal effect; the source files actives as falling curves though it sought activators and does not explain the sign; nearly all actives have a fitted effect of over 65% in size; many hits overshoot -100%
Target sequence (P80244 whole entry, looked up): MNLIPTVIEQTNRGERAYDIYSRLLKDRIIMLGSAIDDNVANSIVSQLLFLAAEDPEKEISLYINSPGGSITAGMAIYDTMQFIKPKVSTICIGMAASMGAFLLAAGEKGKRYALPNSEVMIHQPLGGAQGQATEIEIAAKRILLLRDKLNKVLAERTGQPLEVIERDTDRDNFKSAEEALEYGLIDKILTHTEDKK
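ClpP 10 microg/mL final, pH 8 Tris/KCl buffer with BSA, glycerol, Tween-20; compound pinned in; FRET-FV substrate; RT 20 min; Ex320/Em430; ΔFRET vs ADEP 5.8 microM, DMSO, no enzyme.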
gsp antagonist = antagonizes gsp, the McCune-Albright syndrome mutation; Potency, µM (highest dose often 76.9 µM), for the others: at the top dose activity change, negative = inhibition, hits mostly inhibitors; 0.4% of 340,000 active; gsp-mutant cells, cAMP HTRF, 30 min; control for the full effect not named in the record; active = falling curve of any shape with a large fitted effect; inconclusive = falling curve, mostly with a smaller effect; inactive = flat or rising curve; cell line not stated here;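 note: intracellular cAMP measured with PDE inhibitor Ro 20-1724 present during compound exposure; potency is the fitted concentration of half-maximal effect; % is set by controls: 0 for no effect and ±100 for the full control effect; nearly all actives have a fitted effect of over 65% in size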
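HTRF cAMP read-out (cAMP-d2 plus anti-cAMP antibody-K in lysis buffer, 30 min RT). Before lysis, cells are exposed to compounds with […] for 30 min at 37C in DPBS containing Ca/Mg, BSA and Tween 20.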
TRPML1 inh = inhibitors of human TRPML1 channel; Q9GZU1; activity change, negative = inhibition, % (no concentration beside the values); 0.02% of 390,000 active; AID 624415; TRPML1-inducible cells, Ca2+ dye fluorescence, FDSS; stronger effect = lower value; inhibition of EC80 agonist-evoked calcium signal; in the data active means activity change below about -50%; inconclusive means about -30% to -50%; inactive means above about -30%;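 note: stimulus is agonist 54-4 at its EC80 concentration; % is set by controls: 0 for no effect and ±100 for the full control effect; compound concentration not given in the record; the text of the record puts the active cut at -80%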
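TRPML1-DL cells, Tet-induced overnight (~16 h, 37 °C) at 1,500 cells/well, were loaded with Ca8 no-wash dye plus quencher for 45-90 min at room temperature. Compounds were pinned during FDSS kinetic reading; agonist 54-4 at EC80 (4 uM final) then added.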
gsp ag = agonists of gsp mutant (McCune-Albright syndrome); gsp mutant cells, cAMP HTRF, 30 min; control for the full effect not named in the record; Potency, µM (doses to about 76.9 µM), for inactives: at the top dose activation (cAMP increase), usual class: activators; 0.13% of 340,000 active; AID 624287; active = well fitted activation curve with a large enough effect; inconclusive = small, poorly fitted or top-dose-only effect, or another doubt; inactive = no such curve, though single readings can be large or run the other way; cell line not stated here;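 note: phosphodiesterase inhibitor Ro 20-1724 added with compounds to block cAMP breakdown; potency is the fitted concentration of half-maximal effect; nearly all actives have a fitted effect of over 60% in size; about a fifth of the inactives were tested at one dose only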
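Cells stably selected in G418 were plated at 2000/well, grown 16-24 hr, then given compounds in DMSO with the PDE inhibitor […] (300 uM solution added) for 30 min at 37C; cAMP was read by HTRF.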
Menin-MLL FL inh = inhibitors of human menin-MLL interaction, wild-type MLL peptide | Fluorescence polarization, fluorescein-MLL peptide displacement from menin | FP activity change, % at 61.4 µM | 290,000 tested, under 10 active; inconclusive = falling polarisation curve, or a change in total fluorescence; inactive = total fluorescence flat and polarisation flat or rising; no compound was filed as active; the % refers to the polarisation; negative = inhibition;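 note: % of control where 0% means no effect; inhibitors lower the polarisation; unlabelled MLL peptide was the positive control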
Starred values were filed as active, the others as inactive; u = inconclusive; x = not tested or not shown; & = joins results of further samples; [ ] = another dose, or the depositor's remark. An unsorted share of the library. Share with any hit: about 2.1%.

No.	mol	TRPML1 agonist	ClpP mod	gsp antagonist	TRPML1 inh	gsp ag	Menin-MLL FL inh
1	CC(CN1C(C)CCCC1C)OC(=O)c1cccc(Br)c1 (configuration not stated)	-1.0	x	2.4%	6.4	-2.6%[15.4 µM]	1.3
2	CCOC(=O)c1c(NC(=O)CSc2nnnn2-c2ccccc2OCC)sc2c1CC(C)(C)NC2(C)C	-0.3	-0.8%	-17.7%	-14.2	6.3%[15.4 µM]	x
3	O=C(Nc1ccc(N2CCCC2)c(Cl)c1)c1cccs1	2.9	x	u	12.2	10.1%[15.4 µM]	3.0
4	CC1=C(C(=O)OC2CCCCCC2)C(c2ccc(C)o2)C2=C(CCCC2=O)N1 (configuration not stated)	1.1	-11.0%	u	26.5	2.0%	3.0
5	COc1cc(OC)cc(C(=O)Nc2nc(-c3nnn(-c4ccc(C)cc4)c3C)ns2)c1	0.5	-11.6%	x	-0.3	x	x
6	CSCCC(NC(=O)c1ccccc1)C(=O)NCCCn1nc(C)cc1C (configuration not stated)	-0.3	-0.7%	11.6%	3.5	-5.0%	x
7	COc1ccccc1CNc1ccc([N+](=O)[O-])cc1C	0.1	x	-32.9%	6.9	5.4%[15.4 µM]	-0.2
8	CC(=O)/C(C#N)=C1\NC(=O)C(Cc2cc(Cl)ccc2Cl)S1 (configuration not stated)	-0.5	0.4%	-26.0%	-12.1	19.4%	3.6
9	COc1ccc(S(=O)(=O)Cc2ccc(C(=O)NCCc3cc(OC)ccc3OC)o2)cc1	0.1	x	-12.9%	-14.6	29.8%	-3.7
10	CSc1nc(C(=O)N2CCCC(Nc3ccc(C)c(C)c3)C2)cs1 (configuration not stated)	-0.5	-2.3%	-20.4%	-4.3	-9.2%[15.4 µM]	-4.1
11	O=C(COc1ccccc1[N+](=O)[O-])N(Cc1ccccc1)c1ccccn1	-0.3	x	-1.2%	-1.0	3.7%	-5.3
12	CC(C)CN(CC(C)C)S(=O)(=O)c1cc([N+](=O)[O-])ccc1N1CCCCCC1	0.5	-2.6%	3.2%	52.6	-10.4%	2.7
13	Cc1cccc(NC(=O)CSc2nnc(C)c(C)n2)c1	-0.6	x	1.6%	7.7	-4.4%[15.4 µM]	-1.1
14	S=C(Nc1ccc2c(c1)OCCO2)Nc1ccc2c(c1)OCO2	1.0	-0.8%	4.9%	7.0	-45.9%	1.8
15	Cc1cn([C@H]2C=C[C@@H](CO)O2)c(=O)[nH]c1=O	-0.4&-0.2	0.4%&-14.0%	2.0%&0.4%	-6.5&23.7	x	3.3&5.7&0.7&-2.2
16	CC(=O)OCc1c(F)c(F)c(-n2nc(C)cc2C)c(F)c1F	0.5	-2.9%	-1.1%	9.9	-30.5%[inhibitor]	-0.4
17	O=C(CS(=O)(=O)c1cn(Cc2ccccc2Cl)c2ccccc12)N1CCOCC1	0.4	0.6%	-5.5%	-4.4	-13.4%	1.0
18	COc1ccc2nc3oc(C(=O)NCc4cccs4)cc3cc2c1	5.9	u	16.7%	4.3	8.9%	0.2
19	O=C(Nc1ccc(Br)cc1)N1CCC(CN2CCCC2)CC1	1.8	-1.9%	x	-2.5	x	x
20	COc1ccc(S(=O)(=O)N2CCN(CC(=O)Nc3ccc(C)c(F)c3)CC2)cc1	-1.3	-0.4%	-20.0%	0.3	8.6%	-1.5
21	O=C(O)CN1C(=O)/C(=C/c2ccc(SCc3ccccc3)o2)SC1=S	10.0	-3.2%	-6.0%	-3.6	-67.3%[inhibitor]	u
22	O=C(COc1ccc(Cl)cc1)N(Cc1ccccc1)c1nc(-c2ccccc2)cs1	1.8	-2.0%	3.4%	1.4	u	1.9
23	CCn1c(SC(C)C(=O)O)nc2sc3c(c2c1=O)CCC3 (configuration not stated)	-0.4	-2.5%	1.1%	-7.1	12.2%	1.0
24	CCSc1nnc(NC(=O)c2ccc(S(=O)(=O)N(C)C)cc2)s1	-0.6	x	-3.2%	-2.1	6.2%[15.4 µM]	-3.5
25	COc1nccnc1NS(=O)(=O)c1ccc(N/C=C2\CCCCC2=O)cc1	0.4	x	-10.6%	-6.8	-54.0%[inhibitor]	-4.5
26	CCOc1cccc(C2C(C#N)=C(N)Oc3cc(C)[nH]c(=O)c32)c1OCC (configuration not stated)	-1.0	0.3%	-2.2%	-0.4	6.9%	-0.7
27	O=S(Cc1ccc(Cl)cc1)CC(O)(c1ccccc1)c1ccccc1 (configuration not stated)	-0.3	-1.2%	5.8%	4.9	-11.5%	2.9
28	CCc1cc[n+](-c2nc3ccccc3nc2C(=C=[N-])C#N)cc1	0.2	0.2%	-0.2%	-3.2	8.8%	14.3
29	COc1ccccc1OC(C)C(=O)NCC1(N2CCOCC2)CCCCC1 (configuration not stated)	1.3	-1.9%	x	-6.3	x	x
30	O=C(Nc1cnc2sc3c(n2c1=O)CCCC3)c1ccc(F)cc1	-1.5	-26.3%	-9.9%	7.8	19.9%	-1.2
31	Cc1csc(SC(C)C(=O)Nc2ccc(Cl)cn2)n1 (configuration not stated)	-1.7	0.5%	-10.4%	27.9	-42.2%[inhibitor]	1.6
32	Cc1nn(C)c(Oc2cccc(Cl)c2)c1C(=O)Nc1ccc(F)cc1	3.3	-0.7%	-3.4%	13.7	u	5.6
33	Cn1c(=O)c2c(nc(Br)n2Cc2nnc(N)s2)n(C)c1=O	-0.4	x	15.2%	7.7	33.3%[15.4 µM]	2.6
34	O=C(O)Cn1ncn(-c2ccc(OC(F)(F)F)cc2)c1=O	0.1	x	15.8%	2.4	-5.2%[15.4 µM]	-0.9
35	CCN1C(=O)c2ccccc2Sc2ccc(NC(=O)c3cccc(C)c3)cc21	3.3	-20.3%	x	31.4	x	x
36	COc1ccc(C(=O)c2cn(CC(=O)Nc3cc(C)ccc3C)c3nc(C)ccc3c2=O)cc1	0.2	1.2%	x	-9.8	x	x
37	O=[N+]([O-])c1cc(/C=N/O)ccc1Sc1ccccc1	2.0	-0.9%	6.7%	-0.9	8.9%	-0.4
38	COCCNC(=O)c1onc(CSc2ccccn2)c1C(=O)NCCOC	0.2	-1.6%	4.4%	-7.0	u	x
39	COCCn1c(SCC(=O)Nc2ccc3c(c2)OCCO3)nnc1-c1ccncc1	-0.3	1.4%	6.9%	-5.3	-16.1%	x
40	Cc1nc2ccc(S(=O)(=O)N(CC(=O)Nc3ccc(F)cc3)Cc3ccccc3)cc2s1	5.7	2.4%	x	2.9	x	x
41	COc1ccc(-n2nc(C(=O)N3CCC(N4CCCCC4)CC3)c3c4ccccc4n(C)c3c2=O)cc1	0.8	x	8.0%	7.8	u	-2.1
42	CC(=O)Cc1nsc(NC(=O)c2ccc(COc3ccccc3Cl)o2)n1	1.3	2.9%	-23.1%	21.3	u	-5.4
43	CCOc1ccc(C(=O)C(C)OC(=O)Cn2cnc3c2c(=O)n(C)c(=O)n3C)cc1 (configuration not stated)	-0.9	1.5%	15.1%	-1.4	25.8%	x
44	N#C/C(=C/c1ccc(N2CCOCC2)o1)c1ccc(Cl)cc1	12.7	-0.7%	6.2%	8.8	-62.3%[inhibitor]	u
45	COc1cc2c(cc1OC)CN(c1nc(-c3cccnc3)nc3ccccc13)CC2	2.3	1.6%	10.1%	5.1	-2.4%[15.4 µM]	-2.7
46	CC1=C(C(=O)OC(C)C)C(c2ccc(Br)s2)NC(=O)N1C (configuration not stated)	1.9	-224.9%	1.4%	20.6	10.6%	-1.2
47	Cc1ccccc1Cn1nc(C)c(NC(=O)c2sc3ccccc3c2Cl)c1C	0.2	-2.2%	u	69.3	-6.5%	0.1
48	COc1ccc(N2CC(C(=O)Nc3nnc(SCC(=O)N4CCOCC4)s3)CC2=O)cc1 (configuration not stated)	-0.2	-2.3%	4.1%	7.6	4.2%	x
49	Cc1cc(C(F)(F)F)n2ncc(C(=O)O)c2n1	-1.2	-0.3%	12.0%	-10.1	-0.4%	4.8
50	CC(=O)c1cccc(NC(=S)NCc2ccccc2)c1	0.0	-0.3%	9.2%	32.8	2.1%[15.4 µM]	-3.4
51	O=C(Oc1ccc(C(=S)N2CCOCC2)cc1)c1ccc([N+](=O)[O-])cc1	-0.7	5.1%	-1.0%	14.7	-26.0%	-2.1
52	CC(=O)c1ccc(N/N=C2/CCCNC2=O)cc1	0.6	x	10.0%	-14.1	-0.8%	1.1
53	O=C(NCCSCc1ccccc1)c1ccc(C2SCC(=O)N2Cc2ccccc2)cc1 (configuration not stated)	3.3	-2.9%	-2.0%	-2.4	-26.4%	13.7
54	C=CCOc1cccc(C2/C(=C(\O)c3ccc(F)cc3)C(=O)C(=O)N2CCN(C)C)c1 (configuration not stated)	1.0	-8.2%	4.7%	14.8	-3.5%	6.4
55	Cc1cccc(C2(c3cccc(C)c3)CC2C(=O)NCC2CCCO2)c1 (configuration not stated)	-0.1	0.6%	10.0%	-9.1	-7.3%[15.4 µM]	-0.8
56	CCCN1C2=C(C(=O)CCC2)C(c2ccc(O)c(Br)c2)C2=C1CCCC2=O	0.8	-12.6%	u	21.3	-61.7%[inhibitor]	1.1
57	O=[N+]([O-])c1cccc(CNc2ccc3c(c2)CCC3)c1	5.6	x	5.2%	-2.1	-0.4%	4.1
58	Cc1ccc(C(=O)COC(=O)CCC(=O)Nc2ccc(Oc3ccccc3)cc2)cc1	-0.6	0.7%	x	-21.5	x	x
59	O=C(O)c1cc(N2CCCCC2)nc2ccccc12	0.4	x	5.0%	21.1	u	x
60	COc1ccc(Cl)cc1NC(=O)COc1ccc2c(c1)OCO2	-0.3	-0.4%	-1.5%	-6.9	15.2%	x

Additional compounds follow.
No.	mol	TRPML1 agonist	ClpP mod	gsp antagonist	TRPML1 inh	gsp ag	Menin-MLL FL inh
61	Cc1ccc(C(=O)N/C(=C/c2cccc([N+](=O)[O-])c2)C(=O)NC(C)C)cc1	0.4	-1.9%	4.6%	4.0	16.0%	0.4
62	O=C(c1ccc(-c2ccc([N+](=O)[O-])cc2Cl)o1)N1CCOCC1	-0.7	x	3.7%	2.4	-21.3%	-1.5
63	O=C(COC(=O)CNC(=O)c1ccc(Cl)cc1)Nc1ccc(Cl)cn1	-0.9	-1.7%	6.7%	13.3	-11.8%	x
64	O=C1C2C3CCC(C3)C2C(=O)N1CNc1ccccc1 (configuration not stated)	0.9	-1.6%	13.6%	-9.0	3.8%	2.1
65	Cc1cc2nc(-c3ccc(NC(=O)c4cccnc4)cc3)oc2cc1C	-0.4	60.0%	-15.1%	11.5	7.5%	1.6
66	Nc1nc(Cl)cc(-c2ccccc2)n1	0.1	x	u	-9.3	-2.0%[15.4 µM]	-0.8
